RN4220 kill: growth inhibition of S. aureus RN4220, primary screen, OD600; inhibition, % (no concentration beside the values); 16 h; 0.33% of 330,000 active;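 active = z-score of -3 or lower and OD600 up to 0.18 on both plates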;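 note: plate controls were untreated cells for no effect and reference antibiotic for full effect; stock transfer was 100 nL into about 80 µL; one replicate is shown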
ugtP null kill: growth inhibition of ugtP-null S. aureus, primary screen, RN4220 ugtP deletion, OD600; growth inhibition, % (test concentration not listed); 16 h; some inactives read as strong as hits; 0.54% of 330,000 active;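 active = z-score under -3 and OD600 up to 0.15 on both plates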;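 note: plate controls were untreated wells for no effect and antibiotic for full effect; wells of about 80 µL received 100 nL stock; the first replicate is given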
PrP UTR inh: inhibition of PrP 5' UTR reporter expression. cell-based PrP 5' UTR mRNA reporter, plate reader. 0.35% of 340,000 active. inhibition, % (test concentration not listed);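 active = every replicate at 50% or more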;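 note: 0 = median of the neutral control wells; tested in H4 reporter cells; numbers are from one replicate; inactives centre near -14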
BJeLR viability: MLPCN primary cell-based screen for lethality selective to Ras in HRASV12 cells. BJeLR (HRASV12) viability, CellTiter-Glo ATP luminescence, 48 h; reference of the scale not given here. inhibition, % (no concentration beside the values). 0.17% of 300,000 active;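 active = replicate mean above 50%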;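 note: 50 nL library stock added to about 25 µL; numbers are from one replicate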
Bead autofluor: compound fluorescence in toxin protease inhibitor counterscreen. compound autofluorescence counterscreen, microsphere flow cytometry; stronger effect = higher value. fluorescence intensity (test concentration not listed). 3.1% of 360,000 active. AID 624483;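 active = at least 3 SD above the mean of all compounds, about 16000 in these data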;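 note: 100 nL of 1 mM stock went into each well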
Mtb hypoxia inh: PubChem AID 1159583 | M. tuberculosis hypoxia-regulated fluorescent reporter, fluorescence | 0.1% of 300,000 active | fluorescence inhibition, % (no concentration beside the values);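 active = 35 to 45% if threefold the growth effect, above 45% if 1.5-fold the growth effect; inactive = the rest, general growth blockers included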;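 note: wells of about 50 µL received 100 nL stock; 0% = vehicle wells and 100% = reference inhibitor wells; whole bacteria with a GFP reporter of the hypoxia response; strong numbers were not always called active; many hits fall short of the cut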
Mtb hypoxia inh growth: second read-out of Mtb hypoxia inh, no call of its own (marks repeat the call); growth inhibition, %; measured here: M. tuberculosis growth (absorbance);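 0% = vehicle and 100% = reference antibiotic; read after six days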
* = called active by the depositor; . = no result given. Random draw from the library. Share with any hit: about 4%.

SMILES	RN4220 kill	ugtP null kill	PrP UTR inh	BJeLR viability	Bead autofluor	Mtb hypoxia inh	Mtb hypoxia inh growth
CC(C)(C)c1csc(NC(=O)c2cccnc2Cl)n1	3.2	-2	-13	5	3809	-8	2
CCn1cc([N+](=O)[O-])c(C(=O)N2CCCc3ccccc32)n1	0.2	-3	1	-3	5011	3	-1
COc1cccc(NC(=O)C2C3C=CC4(O3)C2C(=O)N(CCCN2CCCC(C)C2)C4C(=O)NC2CCCCC2C)c1 (stereo unspecified)	4.8	4	-20	-9	3168	14	4
CCCCNC(=O)C1C2C=CC(C2)C1C(=O)O (stereo unspecified)	4.8	0	-27	9	2290	.	.
O=C1CCCC2(O)C1C(c1cccc(Br)c1)NC(=O)N2Cc1ccccc1 (stereo unspecified)	9.1	32	-12	.	2530	6	9
COc1ccccc1N1C(=O)C2C(C(=O)c3ccccc3)=NN(c3ccc(Br)cc3)C2C1=O (stereo unspecified)	0.5	-5	.	3	.	7	9
COc1cc2c(cc1OC)C1(C)N(CC2)C(C(C)=O)=NN1c1ccc(Cl)cc1 (stereo unspecified)	5.5	-8	.	-4	.	16	-8
Cc1ccc(N2CC(C(=O)Nc3nccs3)CC2=O)cc1Cl (stereo unspecified)	-3.0	-16	-7	-2	23923*	-5	11
Cc1ccc(CN2CCCNC2=O)cc1	2.8	6	-4	8	11482	3	5
O=C(NC1CCSC1=O)c1ccc(Cl)cc1 (stereo unspecified)	-2.3	1	-19	3	10476	4	9
CCN(CCn1cccn1)C(=O)c1ccc(OC2CCN(C(=O)COC)CC2)cc1	1.1	3	-13	4	5400	3	13
COc1ccccc1CCNC(=O)CCNS(=O)(=O)c1ccc(NC(C)=O)cc1	-0.2	8	-3	.	6410	5	-11
CC1(C)OC2CO[C@@]3(COS(N)(=O)=O)OC(C)(C)OC3C2O1 (stereo partly specified)	2.4	-3	.	.	.	-17	-3
CCC(C)(C)C1CCc2[nH]nc(C(=O)NCCCNC(=O)OC(C)(C)C)c2C1 (stereo unspecified)	12	5	-8	.	3100	1	2
Cn1ccnc1C(=O)c1cc(SCC(=O)N2CCOCC2)nc2ccccc12	0.7	6	-47	1	4480	7	-1
CC(=O)c1cccc(N(CC(=O)Nc2ccc(F)cc2F)S(C)(=O)=O)c1	4.5	3	-4	4	22378*	-5	15
O=C(CSc1nnc(Cc2ccccc2)o1)NCCN1C(=O)CSC1=O	6.2	0	-15	-1	4124	17	8
CCOC(=O)C1=CN(CC2CCCCC2)CCC1=O	4.0	0	84*	.	3927	-2	2
O=C(NC(=S)NN1CCCCC1c1cccnc1)c1ccc(Br)cc1 (stereo unspecified)	2.1	6	-18	-4	3892	-4	5
CCCNC(=O)c1c(CSc2ccccc2)noc1C(=O)NCc1ccccc1	1.7	-5	-6	3	2845	-1	5
O=Cc1c[nH]c2ccc(NC(=O)OCc3ccccc3)cc12	2.8	18	-20	.	2935	9	1
Oc1ccccc1C=Nc1cccc2ccccc12	3.3	-3	1	5	3553	10	0
CCOC(=O)/C=C1\SCC(=O)N1CC(=O)NCCOC	3.6	6	-29	1	3376	-3	-5
Nc1cc(=O)nc(SCC(=O)N2CCN(c3ccccc3)CC2)n1-c1ccc(F)cc1	0.2	-4	7	0	5606	-4	11
CC(=O)c1cccc(OCc2cc(C(=O)N(C)Cc3ccc(C)o3)no2)c1	6.1	1	-1	-5	4555	8	7

Look-ups from the results shown:
Entry for `COc1cccc(NC(=O)C2C3C=CC4(O3)C2C(=O)N(CCCN2CCCC(C)C2)C4C(=O)NC2CCCCC2C)c1` (stereo unspecified) under Bead autofluor: 3168
Entry for `Oc1ccccc1C=Nc1cccc2ccccc12` under BJeLR viability: 5

Record cards, as listed above:
O=C(NC1CCSC1=O)c1ccc(Cl)cc1 (stereo unspecified) as listed: RN4220 kill = -2.3; ugtP null kill = 1; PrP UTR inh = -19; BJeLR viability = 3; Bead autofluor = 10476; Mtb hypoxia inh = 4; Mtb hypoxia inh growth = 9
O=C1CCCC2(O)C1C(c1cccc(Br)c1)NC(=O)N2Cc1ccccc1 (stereo unspecified) as listed: RN4220 kill = 9.1; ugtP null kill = 32; PrP UTR inh = -12; BJeLR viability = .; Bead autofluor = 2530; Mtb hypoxia inh = 6; Mtb hypoxia inh growth = 9

(listing goes on)
SMILES	RN4220 kill	ugtP null kill	PrP UTR inh	BJeLR viability	Bead autofluor	Mtb hypoxia inh	Mtb hypoxia inh growth
Cc1cc(C)n(-c2ccc(NC(=O)C3CCCCN3C(=O)c3ccoc3C)cc2)n1 (stereo unspecified)	2.3	3	-11	-9	6600	11	5
COCCNC(=O)C1CCCN(S(=O)(=O)c2cccc3nsnc23)C1 (stereo unspecified)	0.4	-5	-18	4	5237	-13	-3
CC(=O)c1cccc(NC(=O)CCNS(=O)(=O)c2cccc(C(C)=O)c2)c1	3.7	-2	3	17	10792	-2	3
CC(C)c1ccc(S(=O)(=O)N2CCN(C(=O)C3=COCCO3)CC2)cc1	1.7	8	.	.	6189	2	10
c1ccc2c(SCc3cn4cccnc4n3)ncnc2c1	-4.9	0	-8	7	2907	12	1
COC(=O)[C@H](CC(C)C)NC(=O)N1CCN(c2cccc(C(F)(F)F)c2)CC1	-4.6	14	-16	4	23638*	14	3
COc1cccc(C(=O)N(Cc2cc3cc(C)ccc3[nH]c2=O)C(C)C)c1	8.5	2	-14	-6	2939	18	9
O=C(Oc1cccc2ccccc12)c1ccncc1	5.1	4	-15	1	6679	9	3
Cc1cc(C)c(NC(=O)Cn2nnc(C(=O)Nc3ccc(F)cc3F)c2N)c(C)c1	1.7	4	-4	-4	5358	6	-1
COc1ccc(S(=O)(=O)NCC2CCCN(Cc3ccccc3C)C2)cc1 (stereo unspecified)	0.5	7	-12	-7	4768	-2	2
O=C(OCC(=O)N1CCCC1)c1c(Cl)ccc(Cl)c1Cl	6.6	5	-6	-6	2888	.	.
CCCNC(=O)c1ccc(N(Cc2ccccc2)S(C)(=O)=O)cc1	5.2	13	-8	21	15450	17	0
CCOc1ccc(CCNC(=O)c2ccc(C)c(N3CCCC3=O)c2)cc1OCC	1.0	-3	-10	-10	2662	-10	12
Nc1cc(-c2ccc(Br)cc2)[nH]n1	3.0	1	-17	7	2476	2	1
CCOc1ccc(-n2nc3c(=O)n(CCN4CCCCC4)nc(C)c3c2C)cc1	3.3	12	-2	5	2120	12	7
C=CCC(C=C)[N+]1(CC(=O)OC)CCCCC1 (stereo unspecified)	7.1	14	-32	-4	3792	-7	-6
Cc1cccc(CSc2nncc(=O)[nH]2)c1	7.6	0	2	6	3842	.	.
CCOc1ncccc1C(=O)Nc1ccc(OC)c(S(=O)(=O)N2CCCCC2)c1	5.5	4	-9	7	4095	13	11
CCOC(=O)c1ccc(N2C(=O)c3n[nH]c(C)c3C2c2ccco2)cc1 (stereo unspecified)	9.4	4	-2	3	3064	16	12
C/C(=N\Nc1ccccc1)c1c(O)cc(C)oc1=O	.	.	-13	-6	4577	.	.
Cc1cccc(NC(=S)N(c2ccccc2)C(C)C)c1C	-0.9	-3	-27	5	2044	-6	1
COc1cc(Br)c(CCNC(=O)Cc2ccccc2)cc1OC	4.8	8	-12	2	2359	12	6
O=C(CSC(=S)N1CCOCC1)c1cc2ccccc2oc1=O	1.7	8	-12	-11	2891	-6	-8
C=CCn1c(COc2cccc3ccc(C)nc23)nnc1SCC(=O)O	7.7	13	-15	-2	3264	0	-3
Cc1cc(O)cc2c1C(=O)/C(=C/c1ccco1)O2	11	5	-29	1	3546	1	6

Carrying on:
SMILES	RN4220 kill	ugtP null kill	PrP UTR inh	BJeLR viability	Bead autofluor	Mtb hypoxia inh	Mtb hypoxia inh growth
COC(=O)CCCC=C1SCC(NC(=O)c2ccccc2)C1=NO (stereo unspecified)	3.9	-4	.	.	.	-3	-6
O=C(CN1C(=O)CC(c2ccco2)Sc2ccccc21)NCc1ccc2c(c1)OCO2 (stereo unspecified)	0.9	-4	-21	0	23277*	14	6
CSCCC1NC2(C(=O)Nc3c(C)cc(Cl)cc32)[C@@H]2C(=O)N(C3CCCC3)C(=O)[C@H]12 (stereo partly specified)	-0.1	-10	-27	2	23955*	6	1
C=CCNC(=O)CSc1n[nH]c(-c2cc(Cl)ccc2OC)n1	-1.7	2	-3	-2	4561	18	13
Cc1c(Cl)cccc1NC(=S)N1CCC(C(N)=O)(N2CCCCC2)CC1	3.7	5	-10	-5	2144	13	2
COc1cccc(C=NNC(=O)C(C)n2nnc3ccccc32)c1 (stereo unspecified)	9.4	2	.	.	.	15	10
C[C@H](NC(=O)N1CCC(Cc2ccccc2)CC1)C(=O)O	-1.1	8	.	-4	3023	-4	0
O=C(O)Cc1cc(=O)[nH]n(-c2ccccc2)c1=O	0.0	-1	3	.	2834	-5	-7
COc1ccc(F)c(CN2CCC(n3nccc3NC(=O)C3CCOC3)CC2)c1 (stereo unspecified)	.	.	-14	4	6275	.	.
COc1ccc(C(=O)CCC(=O)N2CCN(c3ccc([N+](=O)[O-])cc3)CC2)cc1	6.2	-1	-26	-10	5616	-3	-4
CC(OC(=O)CCN1C(=O)c2cccc([N+](=O)[O-])c2C1=O)C(=O)Nc1cc(Cl)cc(Cl)c1 (stereo unspecified)	0.2	0	-21	7	2147	8	8
CCc1ccccc1NC(=O)CSc1nnc(-c2cc(C)[nH]n2)n1N	3.2	9	-12	27	5101	7	5
Cc1cccc(Nc2nnc(SCC(=O)NCc3cccs3)s2)c1C	3.9	4	-26	-17	3531	2	10
Cc1ccc(NC(=O)CN2C(=O)NC3(CCCc4ccccc43)C2=O)c([N+](=O)[O-])c1 (stereo unspecified)	4.2	-12	-19	7	5761	-3	0
CCOC(=O)C1(CCc2ccccc2)CCN(C(=O)c2ccoc2)CC1	8.9	6	-18	-6	2226	2	2
Cc1ccc(C(=O)CC2C(=O)N(c3ccccc3)C(=S)N2c2ccccc2)cc1 (stereo unspecified)	-4.8	0	-9	7	2458	17	7
O=C(CCn1c(=O)c2sccc2n(CC(=O)OCc2ccccc2)c1=O)NCc1ccccc1	3.7	-3	-13	-9	9014	6	1
O=C(CN1CCN(Cc2ccccc2)C1=O)NCc1ccc(Cl)cc1	-6.8	15	-9	11	5174	.	.
CCCc1cc(=O)[nH]c(NCCc2ccccc2)n1	2.8	12	-24	1	3424	3	7
N#CCc1nn(-c2ccc(F)cc2)c(N)c1C#N	2.2	0	-23	-5	4345	14	0
CCCN1C(=O)c2cc(C(=O)NCCc3cccc(C)c3)ccc2C1O (stereo unspecified)	0.2	1	-18	-7	5463	.	.
Cc1cc(NC(=O)c2ccoc2C)no1	-2.1	0	-20	7	2885	7	5
CC1CCN(c2nc3nonc3nc2Nc2ccc(F)cc2)CC1	-2.2	0	-1	6	5125	6	-8
Cn1nc(CC(=O)Nc2cccc3ncccc23)c2ccccc2c1=O	1.4	2	-3	2	3946	.	.
Nc1nc2c(C(=O)N3CCOCC3)nnn2c2ccccc12	3.8	0	-24	-1	.	13	9

(list continues)
SMILES	RN4220 kill	ugtP null kill	PrP UTR inh	BJeLR viability	Bead autofluor	Mtb hypoxia inh	Mtb hypoxia inh growth
COc1cc(OC)cc(C(=O)NCCCN2CCOCC2)c1	3.3	7	-9	-1	3199	.	.
NC(=O)CCC1NC(=O)C(CO)NC(=O)c2cc([N+](=O)[O-])cc(I)c2NCCC(C(N)=O)NC1=O (stereo unspecified)	2.8	-5	.	.	.	1	9
O=C(NNc1nccc(C(F)(F)F)n1)Nc1cccc(Cl)c1	4.7	4	-21	0	4123	-4	0
CCOc1ccc(NC(=O)CCNC(=O)Cn2ccc3ccccc3c2=O)cc1	4.3	3	-21	-3	3583	9	2
COc1ccnc(NCc2cccc(C(F)(F)F)c2)c1C#N	4.4	2	-26	-6	8121	17	9
COc1ccc(NC(=O)C2CCCN(c3nn4c(=O)cc(C)nc4s3)C2)cc1 (stereo unspecified)	7.5	5	-7	0	6772	0	4
COc1cc(C(=S)N2CCOCC2)cc(OC)c1O	2.2	1	.	0	4625	9	-6
CC(Sc1ccc2c(c1)OCCO2)C(=O)Nc1ccc2c(c1)OCO2 (stereo unspecified)	5.9	-1	-10	-2	3938	-2	1

Grouped by structure: the compounds so far containing a CF3 group.
SMILES	RN4220 kill	ugtP null kill	PrP UTR inh	BJeLR viability	Bead autofluor	Mtb hypoxia inh	Mtb hypoxia inh growth
COC(=O)[C@H](CC(C)C)NC(=O)N1CCN(c2cccc(C(F)(F)F)c2)CC1	-4.6	14	-16	4	23638*	14	3
O=C(NNc1nccc(C(F)(F)F)n1)Nc1cccc(Cl)c1	4.7	4	-21	0	4123	-4	0
COc1ccnc(NCc2cccc(C(F)(F)F)c2)c1C#N	4.4	2	-26	-6	8121	17	9
